S aureus helic: blocks Staphylococcus aureus DNA helicase; 120,000 tested, 0.05% active; purified S. aureus helicase, fluorescence unwinding assay; about half of the hits fall short of the stated cut; inhibition, %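 (tested at about 80 µM)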;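 active means both duplicates at 50% or more, or one of them with a favoured structure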;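 further: 0% = mean of negative control wells and 100% = mean of positive control wells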
MgrA DNA FP: alters Staphylococcus aureus MgrA binding to DNA; fluorescence polarization; 84,000 tested, 0.13% active; AID 602314; inhibition, %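 (about 10 µg/mL by stock and volumes)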;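 active means above 50% in either of two replicates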;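 further: 0% = protein plus DNA without compound and 100% = DNA alone without protein; higher means less MgrA bound to DNA so lower polarization; one replicate is shown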
* = called active by the depositor; / = no result given; & = joins results of further samples. An excerpt (hit frequency here may not be typical).

Every second line gives: S aureus helic	MgrA DNA FP
(1) CC1CN(CCC(=O)Nc2ccc3c(c2)OCO3)CC(C)O1 (stereo not drawn)
 : 13	-3.1
(2) Cc1ccc(S(=O)(=O)N(CC(=O)N2CCCCC2)C2CCCCC2)cc1
 : 7	-1.3
(3) COc1ccc(CNC(=O)COC(=O)CC2CCCC2)cc1
 : 25	0.4
(4) O=C(Nc1c2c(nn1-c1ccc(Cl)cc1)CSC2)c1ccco1
 : 9	/
(5) Cc1ccc(C2C3CCCC=C3C(C#N)C(N)C2(C#N)C#N)s1 (stereo not drawn)
 : 0	-2.1
(6) Clc1ccc(-c2csc(NNC3=NCCCCC3)n2)cc1
 : 9	/
(7) COC(=O)c1cc(/C=C/C(=O)O)oc1C
 : -2	/
(8) COc1ccc(CCN(C)Cn2c(=O)oc3ccccc32)cc1OC
 : -3	/
(9) Cc1ccc(C)c(NC(=O)Cn2cccc2)c1
 : 16	-1.8
(10) CCOC(=O)N1CCN(C(=O)c2ccc(CS(=O)Cc3ccc(C)cc3)o2)CC1 (stereo not drawn)
 : 23	/
(11) CN(C)S(=O)(=O)c1ccc(N2CCCCC2)c(C(=O)Nc2ccc3c(c2)OCO3)c1
 : -15	/
(12) O=C(Nc1ccc(F)cc1F)Nc1ccccc1C(=O)NCCN1CCNC1=O
 : -15	/
(13) Cc1ccc(CNC(=O)CN(Cc2ccccc2)S(=O)(=O)c2ccccc2)cc1
 : -13	-0.3
(14) N#C/C(=C/Nc1ccc(S(N)(=O)=O)cc1)c1nc(-c2ccc(Cl)c(Cl)c2)cs1
 : 0	/
(15) Oc1c(Cl)cc(Cl)cc1Sc1cc(Cl)cc(Cl)c1O
 : /	10
(16) C#CCSc1nc2ccccc2c(=O)[nH]1
 : 10	/
(17) CC(=O)NCCC(=O)Nc1nc(SCc2ccc(Cl)cc2)n[nH]1
 : -5	/
(18) COC(=O)c1c(C)[nH]c(C)c1-c1ccon1
 : /	-4.0
(19) Cc1cc(C)n2nc(C(=O)OCC(=O)NC3CCCCC3)nc2n1
 : 2	/
(20) O=C(Nc1ccccc1I)c1ccccc1
 : -8	/
(21) O=C(O)C1(NCc2ccccc2Cl)CCCCC1
 : -3	/
(22) CCN(CC)C(=N)/C(C#N)=N\Nc1ccc(C)cc1
 : 5	/
(23) CC12CCC(/C(=C/c3ccccc3)C1=O)C2(C)C (stereo not drawn)
 : /	-2.7
(24) NNc1c(O)c(C(=O)O)cc2ccccc12
 : 19	2.5
(25) c1cc2c(s1)CCNC2C1CC1 (stereo not drawn)
 : 1	-2.6
(26) CN(C)S(=O)(=O)c1ccc(SCC(=O)NC(=O)NC2CCCC2)nc1
 : -3	/
(27) O=C(O)COc1c(Cl)cc(C=C2C(=O)NC(=S)NC2=O)cc1Cl
 : 10	8.5
(28) O=C1CS(=O)(=O)C(c2ccc(Oc3ccccc3)cc2)N1c1ccccc1 (stereo not drawn)
 : 6	-2.0
(29) c1ccc(Cn2c3ccccc3n3ncnc23)cc1
 : -13	-4.7
(30) Cn1nc(-c2ccccc2)cc1NC(=O)C1COc2ccccc2O1 (stereo not drawn)
 : /	0.0
(31) CCOC(=O)c1cc(C(F)(F)F)[nH]n1
 : /	-1.1
(32) CC1=C(C(=O)Nc2ccccc2C(=O)NCc2ccccn2)SCCO1
 : 12	/
(33) COc1cc(OC)cc(C(=O)OC2CCCCC2=O)c1 (stereo not drawn)
 : 8	/
(34) CC(C)(C)C(=O)N1CCCC(c2nc3c(nnn3Cc3ccc(C(C)(C)C)cc3)c(=O)[nH]2)C1 (stereo not drawn)
 : 19	-1.2
(35) COc1ccccc1OCC(=O)N1C(C)CCCC1C (stereo not drawn)
 : 1	-2.1
(36) NC1=NCCN1CC(=O)O
 : /	0.0
(37) Cc1cc(-n2c(C)cc(C(=O)Cn3cc(C(F)(F)F)cc(Cl)c3=O)c2C)no1
 : 5	/
(38) Cn1c(CC(=O)Nc2ccccc2)n[nH]c1=S
 : 6	-1.9
(39) Cc1ccccc1-n1c(C)cc(/C=C2\NC(=O)NC2=O)c1C
 : -15	-1.1
(40) Cc1cc(O)cc(O)c1C(=O)Cc1cnn(-c2ccccc2)c1
 : -7	/
(41) Cc1oc(-c2cccc(Br)c2)nc1CN1CCC(C(=O)NC2CCCCC2)CC1
 : 8	/
(42) CC1(C)CC(=O)C=C(NCC2CCNCC2)C1
 : 6	4.8
(43) C=CCNC(=O)C1C(=O)Nc2nc3ccccc3nc21 (stereo not drawn)
 : 8	0.1
(44) O=C(O)CC1(Cc2nc(-c3ccc(Cl)cc3)no2)CCCC1
 : 4	-0.8
(45) CN(C)c1ccc(C2CC(c3ccccc3)=NN2C(=O)CCCC(=O)O)cc1 (stereo not drawn)
 : /	-0.1
(46) O=C1c2ccccc2C(=O)N1CCSc1ncccn1
 : -3	/
(47) COc1ccc(N2C(=O)CC2(C#N)c2ccc(OCc3ccccc3)cc2)cc1 (stereo not drawn)
 : 9	/
(48) O=C(Nc1ccc2[nH]ncc2c1)/C(=C/c1ccco1)NC(=O)c1ccccc1
 : 8	0.9
(49) CCC(=O)Nc1ccc(-c2nc3ccccc3[nH]2)cc1
 : 8	/
(50) COc1cccc(NC(=O)NCc2ccccc2)c1
 : -24	/
(51) O=C(Nc1ccccc1)C1CCN(c2cnccn2)CC1
 : 23	/
(52) CCCC1=C(C(=O)OCC)C(c2cccnc2)C(C#N)=C(N)O1 (stereo not drawn)
 : /	0.6
(53) O=C1CN(C(=O)Cn2nnc3ccccc3c2=O)c2ccccc2N1
 : -3	/
(54) COc1ccc(C=Nc2ccc(/C=C\C(=O)O)cc2)cc1
 : /	-3.2
(55) COc1ccccc1OCC(=O)N(C)c1ccccc1
 : 17	-2.2
(56) O=C(Cc1ccccc1)Nc1nnc(C2CCCCC2)s1
 : 7	-3.0
(57) CCn1c2ccccc2c2cc(/C=C/C(=O)O)ccc21
 : -5	/
(58) COc1ccc(NC(=O)c2ccccc2Nc2ccccc2)cc1
 : 10	0.6
(59) O=C(COc1ccc(Cl)cc1)NCCn1ccc2ccccc21
 : -20	/
(60) c1ccc(-c2nc3ccccc3o2)cc1
 : -2	0.4

(cont.)
Every second line gives: S aureus helic	MgrA DNA FP
(61) Cc1ccc(NC(=O)C2C3C=CC4(O3)C2C(=O)N(c2ccccc2F)C4C(=O)NC2CCCC2)cc1 (stereo not drawn)
 : 18	-1.2
(62) S=c1cc(-c2ccccc2)ss1
 : /	11
(63) Cc1nnc2c(Nc3ccccc3I)nc3nonc3n12
 : 7	3.4
(64) CC1=C(C(N)=O)C(/C=C/c2ccccc2)n2ncnc2N1 (stereo not drawn)
 : -8	/
(65) CC(=O)Oc1ccccc1OCc1nn(C)c2ccccc12
 : 1	-0.9
(66) Cc1cccc(Cn2nc(Cc3cccnc3)c3ccccc3c2=O)c1
 : 3	-0.1
(67) CCN(CC)CCOc1ccc2nc(N(C)C)sc2c1
 : 15	4.1
(68) O=C(Nc1cccc2nonc12)C(F)(F)C(F)(F)C(F)(F)F
 : 6	1.8
(69) CC1=C(Cc2ccc(OC(=O)c3ccccc3)cc2)C(=O)C(C(C)C)CC1 (stereo not drawn)
 : 7	-0.3
(70) O=C(NCCc1ccccc1)N1CCOCC1
 : -6	-0.8
(71) COC(=O)c1cc(S(=O)(=O)N(CCCN2CCOCC2)C2CCN(C)CC2)cn1C
 : -18	/
(72) COc1cc(CCC(=O)Nc2c(C(=O)N3CCN(c4ccccn4)CC3)oc3ccccc23)on1
 : 18	/
(73) CC(C)(C)c1ccc(C(=O)N2CCCC2)cc1
 : 2	-1.1
(74) O=C(N/N=C/C=C/c1ccccc1)c1ccccc1CO
 : /	-0.1
(75) O=C(c1cc2cc(Br)ccc2oc1=O)N1CCN(c2ccccc2F)CC1
 : -2	1.8
(76) CSc1ccc(C(C(C(=O)c2cccs2)N2CCOCC2)N2CCOCC2)cc1 (stereo not drawn)
 : -3	/
(77) CC(C)n1nccc1NC(=O)CSc1nnc(Nc2ccccc2F)s1
 : -17	/
(78) CCOC(=O)c1oc2ccccc2c1NC(=O)COC(=O)CCc1nc2ccccc2c(=O)[nH]1
 : 6	/
(79) CN(C)/C=C1/Nc2ccccc2C1=O
 : 3	1.5
(80) CS(=O)(=O)n1nc(-c2ccco2)nc1N
 : 6	4.4
(81) COc1ccc(/C(O)=C/C(=O)C(=O)NC2C3CC4CC(C3)CC2C4)cc1 (stereo not drawn)
 : -7	-0.9
(82) O=S(=O)(c1ccccc1F)N1C2CCC1CC(O)(c1ccccc1F)C2 (stereo not drawn)
 : -14	2.6
(83) Cc1cc(C)c2c(CC(=O)O)coc2c1
 : 4	-2.8
(84) Cc1ccc(Oc2ccc(C#N)c(C#N)c2)c(-n2nc3ccccc3n2)c1
 : -1	4.3
(85) O=S(=O)(NC1CC2CCC1C2)c1cccs1 (stereo not drawn)
 : 3	2.0
(86) COC(=O)c1c(SC)nc2ccccc2c1OC
 : -18	/
(87) COc1ccc2c(c1)OC(c1ccccc1)CC2=O (stereo not drawn)
 : /	-3.6
(88) C=CCN1C(=S)N[C@@H]2CS(=O)(=O)C[C@@H]21
 : 5	1.2
(89) N#CC1(NC(=O)COC(=O)c2ccc(-n3cccc3)cc2)CCCC1
 : 12	/
(90) CN(CCc1ccccn1)C(=O)c1cccnc1Oc1ccc(Cl)cc1
 : /	3.2
(91) CC1Cc2cc(S(=O)(=O)NCCC(=O)N3CCCCCC3)ccc2N1C(=O)C1CC1 (stereo not drawn)
 : -26	/
(92) O=C(CN(C(=O)c1ccccc1)N1C(=O)CCC1=O)c1ccccc1
 : -6	-1.2
(93) COc1ccc(NC(=O)C2CCCN2S(=O)(=O)c2ccc3c(c2)C(C)(C)C(=O)N3C)cc1 (stereo not drawn)
 : 13	/
(94) O=C(NCc1ccco1)c1ccc(-n2cnc3cccnc32)cc1
 : 10	/
(95) COc1cc(-c2ccc(=O)[nH]n2)ccc1OC(F)F
 : /	0.4&5.0
(96) CS(=O)(=O)N1CCN(C(=O)CSc2ccccc2)CC1
 : 17	5.5
(97) N#CC(C#N)=C(Nc1ccccn1)C(F)(F)F
 : -23	/
(98) CCCN(CCC)C(=O)c1ccc2c(Cl)c3c(nc2c1)CCCC3
 : 12	2.0
(99) CC(=O)NC1CCN(C(=O)Nc2ccccc2)CC1
 : 4	0.0
(100) C=C(C)CSc1nc2c(c(=O)n1-c1ccccc1)CC1=C(CC(C)(CC)OC1)N2 (stereo not drawn)
 : 2	-1.9
(101) COC(=O)Cn1cccc1C(=O)c1ccccc1
 : 11	/
(102) Nc1c(Cl)cc(Cl)cc1C(=O)OCC(=O)NC1CCCCC1
 : -9	0.1
(103) CC(=O)N(C(C)=O)n1c(C)nc2c(sc3nnc(-c4ccccc4)c(-c4ccccc4)c32)c1=O
 : /	0.4
(104) COc1ccc2[nH]c(=O)c(CN(Cc3cccs3)S(=O)(=O)c3cccc4nsnc34)cc2c1
 : -3	3.5
(105) c1ccc(-c2nnc(SCC3CCOCO3)n2-c2ccccc2)cc1 (stereo not drawn)
 : 14	3.0
(106) CC(C)CN(C(=O)c1ccc(Cl)cc1)c1c(N)n(CC(C)C)c(=O)[nH]c1=O
 : 8	/
(107) COC(=O)C1=C(C)N(Cc2ccc(C)cc2)C(=O)/C1=C\c1ccc(N(C)C)cc1
 : -23	/
(108) CC(=O)N(c1nccs1)C1CCCCC1
 : 12	0.1
(109) CS(=O)(=O)Nc1ccc([N+](=O)[O-])cc1OC1CCCCC1
 : /	7.6
(110) COc1ccccc1OCCC(=O)NC1CCCCC1C (stereo not drawn)
 : 2	/
(111) CCN(CC)c1ccc(N=C2C(=C(C#N)C#N)c3ccccc3C2=C(C#N)C#N)cc1
 : 2	2.7
(112) Cc1cccc(N=C(N)NC(N)=O)c1
 : -3	3.2
(113) C=CCn1c(CCNC(=O)c2cccs2)nnc1SCC(=O)c1ccc(Br)cc1
 : 17	-0.1
(114) COc1ccc2c(CC(=O)Nc3ccccc3)coc2c1
 : -10	/
(115) O=C(Oc1ccc2c(=O)c(Oc3ccccc3Cl)coc2c1)c1ccco1
 : -9	/
(116) Cc1ccc(N2C(=O)SC(N(CC(=O)O)c3ccccc3)C2=O)cc1 (stereo not drawn)
 : 9	1.4
(117) CN(C)c1cccc(C(=O)OCC(=O)c2ccc(OC(F)F)cc2)c1
 : -6	/
(118) Cn1nccc1NC(=O)Nc1ccc(OC(F)(F)F)cc1
 : /	-0.3
(119) C/C(=N\N)c1c(-c2ccccc2)c2cc(Br)ccc2[nH]c1=O
 : 8	0.2
(120) O=C(O)C1CSC(C2CC=CCC2)N1 (stereo not drawn)
 : 8	4.0
(121) CN(C)S(=O)(=O)c1cccc(C(=O)OCc2cc(=O)n3ccsc3n2)c1
 : 9	/

Along the list, as entered above:
Nos. 105 to 115 in S aureus helic: 14, 8, -23, 12, /, 2, 2, -3, 17, -10, -9

Grouped by structure, those above with two or more sulfur atoms.
Every second line gives: S aureus helic	MgrA DNA FP
(14) N#C/C(=C/Nc1ccc(S(N)(=O)=O)cc1)c1nc(-c2ccc(Cl)c(Cl)c2)cs1
 : 0	/
(26) CN(C)S(=O)(=O)c1ccc(SCC(=O)NC(=O)NC2CCCC2)nc1
 : -3	/
(62) S=c1cc(-c2ccccc2)ss1
 : /	11
(76) CSc1ccc(C(C(C(=O)c2cccs2)N2CCOCC2)N2CCOCC2)cc1 (stereo not drawn)
 : -3	/
(77) CC(C)n1nccc1NC(=O)CSc1nnc(Nc2ccccc2F)s1
 : -17	/
(85) O=S(=O)(NC1CC2CCC1C2)c1cccs1 (stereo not drawn)
 : 3	2.0
(88) C=CCN1C(=S)N[C@@H]2CS(=O)(=O)C[C@@H]21
 : 5	1.2
(96) CS(=O)(=O)N1CCN(C(=O)CSc2ccccc2)CC1
 : 17	5.5
(104) COc1ccc2[nH]c(=O)c(CN(Cc3cccs3)S(=O)(=O)c3cccc4nsnc34)cc2c1
 : -3	3.5
(113) C=CCn1c(CCNC(=O)c2cccs2)nnc1SCC(=O)c1ccc(Br)cc1
 : 17	-0.1
(121) CN(C)S(=O)(=O)c1cccc(C(=O)OCc2cc(=O)n3ccsc3n2)c1
 : 9	/

Compound activity from PubChem BioAssay.
